Vaccinia Venus = vaccinia inhibition (Venus reporter); Potency, µM (titrated, usually from 36.5 µM), for inactives: at the top dose activity change, negative = inhibition, actives largely listed as inhibitors; Vaccinia virus Venus reporter expression, fluorescence; actives 0.46% (n = 330,000); active means well fitted inhibition curve with a large enough effect; inconclusive means small, poorly fitted or top-dose-only effect; inactive means no such curve, though single readings can be large or run the other way; tested in A549 cells; note: nearly all actives have a fitted effect of over 30% in size; inactives centre near -10
VACV mCherry inh = inhibitors of vaccinia virus infection (mCherry reporter signal) | Vaccinia virus mCherry reporter infection, fluorescence; about a quarter of the inactives have no number | Potency, µM (highest dose often 36.5 µM), for the others: top-dose activity change, negative = inhibition, actives largely listed as inhibitors | actives 0.63% (n = 310,000) | AID 720579; active = well fitted inhibition curve with a large enough effect; inconclusive = small, poorly fitted or top-dose-only effect; inactive = no such curve, though single readings can be large or run the other way; tested in A549 cells; note: nearly all actives have a fitted effect of over 35% in size; inactives centre near -10
* hit, by the source's call; i = inactive; ? = inconclusive; . = not tested or not shown; & = joins results of further samples; [ ] = remark or other dose. % is set by controls: 0 for no effect and ±100 for the full control effect; potency is the fitted concentration of half-maximal effect. The order is random. Share with any hit: about 0.88%.

Under each structure: Vaccinia Venus, VACV mCherry inh
Cn1c(=O)c(C(=O)NCC2CCCO2)c(O)c2ccccc21 (stereo not drawn)
 : -14%, ?
CCC(C)NC(=O)C1CCCN(c2nc(C)cc(OC)n2)C1 (stereo not drawn)
 : -19%, .
COc1ccccc1N(CC(O)CN1C(=O)NC(C)(C)C1=O)S(=O)(=O)c1ccc(C)cc1 (stereo not drawn)
 : -23%, .
O=C(NNc1c2ccccc2nc2ccccc12)c1cc2ccccc2cc1O
 : ?, -17%
Cn1c(N)c(C(=O)COC(=O)CCC(=O)c2ccc(F)cc2)c(=O)n(C)c1=O
 : -6%, -3%
CC(=O)Nc1ccc(NC(=O)c2oc3c(c2C)-c2nn(Cc4ccccc4Cl)cc2CC3)cc1
 : ?, ?
Cc1nc2cccnc2n1-c1cccc(C(=O)NCCc2ccc(Cl)cc2)c1
 : -21%, -23%
COc1cc(OC)cc(C(=O)OCC(=O)Nc2cccc(C(C)=O)c2)c1
 : -11%, -14%
COc1ccc(/C=C2\C(=O)N(Cc3ccc(F)cc3)CC(=O)N2Cc2ccccc2)cc1
 : -24%, .
COC(=O)c1ccc(CN2CCN(Cc3ccc(F)cc3)C(CCO)C2)cc1 (stereo not drawn)
 : -4%, -7%
CC(=O)Nc1cccc(-c2ccnc3c2CC(C)(C(=O)NCCN(C)C)O3)c1 (stereo not drawn)
 : 2%, 16%
COc1ccc(Cn2c(C3CC3)nc3ccc(NC(=O)c4ccco4)cc3c2=O)cc1
 : -23%, ?
Cc1ccc(C(=O)Nc2cccc(C(F)(F)F)c2)cc1NC(=O)c1cnnc2ccccc12
 : -11%&-1%, -11%&-5%
CCCCn1c(-c2cccc(C)c2)nc2cc3[nH]c(=O)c(C(C)C)nc3cc21
 : -20%, -2%
O=C(NC(=O)N1CCN(c2ccc([N+](=O)[O-])cn2)CC1)c1c(Cl)cccc1Cl
 : 1%, i
COc1ccc(OCCCC(=O)OCC(=O)Nc2ncc(Cl)cc2Cl)cc1
 : -1%, -12%
O=C(Oc1ccc2ccccc2c1Cl)N1CCCC1
 : ?, -23%
O=C(COc1cccc(Cl)c1)Nc1nc(-c2ccc(S(=O)(=O)N3CCOCC3)cc2)cs1
 : -29%, -10%
Cc1noc(C)c1-c1nc(NCc2cccnc2)c2ccccc2n1
 : -5%, -10%
CCC(c1nnnn1-c1ccc2c(c1)OCCO2)N1CCN(c2ccc(C(F)(F)F)cn2)CC1 (stereo not drawn)
 : -9%, -15%

An excerpt of these results, bar-delimited.
structure | Vaccinia Venus | VACV mCherry inh
CCCCn1c(-c2cccc(C)c2)nc2cc3[nH]c(=O)c(C(C)C)nc3cc21 | -20% | -2%
O=C(NC(=O)N1CCN(c2ccc([N+](=O)[O-])cn2)CC1)c1c(Cl)cccc1Cl | 1% | i
COc1ccc(OCCCC(=O)OCC(=O)Nc2ncc(Cl)cc2Cl)cc1 | -1% | -12%
O=C(Oc1ccc2ccccc2c1Cl)N1CCCC1 | ? | -23%
O=C(COc1cccc(Cl)c1)Nc1nc(-c2ccc(S(=O)(=O)N3CCOCC3)cc2)cs1 | -29% | -10%

Additional compounds follow.
Under each structure: Vaccinia Venus, VACV mCherry inh
Cc1ccc(CN2CCC(CNC(=O)c3cnn(-c4ccccc4Cl)c3C3CCN(C(=O)OC(C)(C)C)CC3)CC2)cc1
 : -25%, ?
Cc1ccc2oc(=O)n(CCCOc3ccccc3Cl)c2c1
 : -12%, -17%
NCC(c1ccccc1Cl)c1c[nH]c2ccccc12 (stereo not drawn)
 : -3%, ?
COc1cccc(-c2cn3nc4c(nc3n2)CCCC4)c1
 : -23%, .
O=c1cc(CN2CCCCCCC2)c2c(ccc3ccccc32)o1
 : 7%, 3%
COc1ccc(C(=O)Nc2nnc(SCc3cc(=O)c4cc(C)cc(C)c4[nH]3)s2)cc1
 : -13%, -6%
CCSc1nnc2c(n1)[nH]c1c(C)cccc12
 : ?, ?
COc1ccccc1NC(=O)CN1CCN(c2ccccc2OC)CC1
 : -24%, -3%
CCOc1ccccc1N1C(=O)c2ccccc2N/C1=C\N1CCN(C(=O)c2ccco2)CC1
 : -23%, -9%
CC1(C)NC(=O)N(CC(=O)OCC(=O)c2ccc(Br)s2)C1=O
 : 2%, i
CC(=O)C1=C(C)NC(=O)NC1c1cccs1 (stereo not drawn)
 : -9%, -9%
COc1ccc2nc(NC(=O)CCNS(=O)(=O)c3ccc4c(c3)oc(=O)n4C)sc2c1
 : -15%, ?
CCCCN1C(=O)C(O)(c2c[nH]c3ccccc23)c2cc(Br)ccc21 (stereo not drawn)
 : -18%, -19%
O=C1CCC[C@@H]2C=C[C@H](c3ccc(Br)cc3)[C@H]3CCN1[C@@H]32
 : -11%, 17%
COC(=O)c1ccc(C2/C(=C(\O)c3cccc(OC)c3)C(=O)C(=O)N2CCCN2CCOCC2)cc1 (stereo not drawn)
 : -1%, -15%
CCn1nc(C(=O)OCC(=O)NCCN2C(=O)CSC2=O)c2ccccc2c1=O
 : -1%, 1%
CC1=C(C(=O)N2CCOCC2)C(c2cccc(C)c2)NC(=S)N1 (stereo not drawn)
 : -1%, i
C#CCOCCOCCOCCNc1nc(N2CCN(C(=O)[C@H](CC(N)=O)n3cc(C(N)[C@H](C)CC)nn3)CC2)nc(N2CCN(C(=O)[C@H](CC(N)=O)n3cc(C(N)[C@@H](C)CC)nn3)CC2)n1 (stereo partly drawn)
 : 0%, -7%
O=C(CCNC(=O)c1ccccc1Cl)Nc1nccs1
 : 6%, 0%
CN1C(=O)/C(=C/c2ccccc2F)Sc2ccc(C(=O)N3CCCC3)cc21
 : ?, -17%

Entries shown so far that contain a furan ring, fused or not:
Under each structure: Vaccinia Venus, VACV mCherry inh
CC(=O)Nc1ccc(NC(=O)c2oc3c(c2C)-c2nn(Cc4ccccc4Cl)cc2CC3)cc1
 : ?, ?
COc1ccc(Cn2c(C3CC3)nc3ccc(NC(=O)c4ccco4)cc3c2=O)cc1
 : -23%, ?
CCOc1ccccc1N1C(=O)c2ccccc2N/C1=C\N1CCN(C(=O)c2ccco2)CC1
 : -23%, -9%

Next structures
Under each structure: Vaccinia Venus, VACV mCherry inh
O=C(NC1=NCCS1)C1COc2ccccc2O1 (stereo not drawn)
 : 6%, -5%
COc1cc(CN2CCN(C(=O)c3ccc(-c4ccccc4)cc3)CC2)cc(OC)c1OC
 : -10%, i
COc1ccc(C(NC(=O)C2CCN(CCOc3ccccc3)CC2)c2ccccn2)cc1 (stereo not drawn)
 : -9%, 48%[activator]
O=C(NCC(=O)N1CCN(Cc2ccc3c(c2)OCO3)CC1)c1ccccc1F
 : -5%, i
CC1CC(C)CN(C(=O)c2ccc(CSc3nc4ccncc4[nH]3)cc2)C1 (stereo not drawn)
 : -29%, ?
NC(=O)c1ccc(-n2nnnc2Oc2ccccc2C(=O)N2CCOCC2)cc1
 : -2%, .
CCNC(=O)CN(Cc1ccccc1)S(=O)(=O)c1ccccc1
 : -14%, i
COc1ccc(CCNCC(=O)Nc2ccc(C)c(Br)c2)cc1OC
 : -18%, -4%
CCn1c(CNC(=O)Cc2ccc(OC)cc2)nnc1SCC(=O)Nc1ccc(C(=O)O)cc1
 : -12%, i
CCOc1ccc(S(=O)(=O)N2CCCC(C(=O)NC3CC3)C2)cc1Cl (stereo not drawn)
 : ?, -19%
COc1ccc(-c2noc(CC(=O)Nc3ccc(C)c(F)c3)n2)cc1
 : -7%, 1%
CC(C)(C)c1ccc(OCCC(=O)OCC(=O)NC2CCCCC2)cc1
 : -8%, -13%
COc1ccc(Nc2ccc(N3C(=O)CCCC3=O)cc2[N+](=O)[O-])cc1OC
 : -14%, -3%
O=C1CCC(=O)N1N1C(=O)C2C3c4ccccc4C(c4ccccc43)C2C1=O (stereo not drawn)
 : -16%, 0%
CCOc1ccc(NC(=O)COC(=O)Cc2ccc(S(=O)(=O)N3CCOCC3)s2)cc1
 : -4%, 0%
CCC(=O)/C=C1/Sc2ccc(OC)cc2N1CC
 : -18%, ?
CC(=O)NCCC(=O)Nc1nc(-c2ccc3c(c2)OCCO3)cs1
 : -5%, -12%
COc1ccc(NC(=O)CSc2nnc(NC(=O)c3ccccc3C(=O)O)s2)cc1
 : -1%, -4%
COC(=O)c1cc(OCC(=O)NC2CCCc3ccccc32)cc(C(=O)OC)c1 (stereo not drawn)
 : -8%, -22%
CCN(CCCNC(=O)c1cc(Nc2ccccc2OC)nc2ccccc12)c1cccc(C)c1
 : -16%, -20%
COc1cccc(C2C(C(=O)c3sc(C)nc3C)=C(O)C(=O)N2CCN2CCOCC2)c1OC (stereo not drawn)
 : -1%, .
NC(N)=NC1=NC(=O)C(Cc2ccccc2Cl)S1 (stereo not drawn)
 : -19%, -3%
O=C1/C(=C/c2cccc([N+](=O)[O-])c2)N2CCC1CC2
 : -20%, -7%
O=C(Oc1ccccc1/C=C\C(=O)c1cc2ccccc2o1)c1ccccc1
 : -9%, i
O=C(CN1C(=O)c2cccnc2Oc2ccc(Cl)cc21)N1CCOCC1
 : 1%, -13%
O=C(OCc1ccccc1)c1ccc(Br)o1
 : -9%, i
O=c1oc2ccccc2c(O)c1C=NCc1ccccn1
 : ?, .
O=C(CCN1C(=O)c2ccccc2S1(=O)=O)N1CCN(c2ccc(F)cc2)CC1
 : -7%, ?
CCN(C(=O)COC(=O)c1ccccc1NCCO)C1CCS(=O)(=O)C1 (stereo not drawn)
 : 4%, i
COc1ccc(C(=O)OCc2cc(=O)n3c(C)csc3n2)cc1F
 : -6%, -13%
C=C(C)CNC(=S)N/N=C\c1ccc2c(c1)OCO2
 : -8%, ?
CC(=O)c1cccc(NC(=O)Cc2noc3ccccc23)c1
 : -12%, i
O=C(C1CCN(S(=O)(=O)c2ccc(Cl)cc2)CC1)N1CCC1
 : -2%, -11%
Cc1ccc(S(=O)(=O)N2CCCCC2)cc1NS(=O)(=O)c1cccc(C(=O)O)c1
 : -14%, -6%
COc1ccc(C2=NO[C@@H]3[C@@H]4C[C@@H]([C@H]5C(=O)N(C)C(=O)[C@@H]45)[C@H]23)cc1
 : -11%, -2%
COc1ccc(N(CC(=O)Nc2c(C)n(C)n(-c3ccccc3)c2=O)S(=O)(=O)c2ccc(C)cc2)cc1OC
 : 4%, -10%
Cc1ccc(CNC(=O)C(C)OC(=O)c2ccco2)cc1 (stereo not drawn)
 : -1%, -7%
CCCCn1c(-c2ccncc2)nc2c1c(=O)[nH]c(=O)n2CC(C)C
 : -7%, .
COc1ccc(NC(=O)CCC2CCCCC2)cc1S(=O)(=O)N1CCCCC1
 : -25%, ?
O=C(Nc1nnc(CCN2CCCCC2)s1)c1cccc(Cl)c1
 : -4%, -12%
CCN(CC)c1ccc(/C=N/N=C(c2ccccc2)c2ccccc2)c(O)c1
 : -9%, i
Nc1cc2c(cc1[N+](=O)[O-])OCO2
 : -12%, -17%
Cc1nn(-c2ccccc2)cc1C(c1c(N)[nH]c(=S)[nH]c1=O)c1c(N)[nH]c(=S)[nH]c1=O
 : 7%, 5%
Cc1cc(OCC(=O)Nc2cc(-c3nn4c(C)nnc4s3)ccc2C)ccc1Cl
 : 58%[activator], 10%
O=C(Cc1cccs1)N1CCN=C1SCc1ccc(Br)cc1
 : -18%, -20%
COc1ccc(NC(=O)c2c(NC(=O)COc3ccccc3)sc3c2CCCCC3)cc1
 : 0%, -1%
CCCC(c1nnnn1Cc1ccco1)N1CCN(c2ccccc2)CC1 (stereo not drawn)
 : -8%, -3%
CN(C(=O)COC(=O)c1cnc(Cl)c(Cl)c1)C1CCCCC1
 : -6%, i
COc1ccc(-c2noc(-c3ccccc3NC(=O)c3cc(OC)c(OC)c(OC)c3)n2)cc1
 : -6%[7.34 µM], -5%[7.34 µM]
CCOc1ccc(NC2=NCC(=O)N2CCc2ccccc2)cc1
 : -12%, i
O=C(CN1CCCC1)Nc1ccccc1Sc1ccccc1
 : 3%, -5%
Cc1cc(NC(=O)COc2coc(CN3CCN(c4ccccc4)CC3)cc2=O)no1
 : -11%, -14%
Cc1noc(C)c1NC(=O)Nc1cccc2c1O[C@H](CN(C)S(=O)(=O)c1cccs1)[C@@H](C)CN([C@H](C)CO)C2=O
 : -3%, 7%
CCOC(=O)Cn1c(=N)n(Cc2ccccc2)c2ccccc21
 : ?, .
COc1ccccc1OCCCCN1CCC(C)CC1
 : -14%, i
COc1ccc(-c2ccccc2)cc1NC(=O)c1ccncc1
 : -12%, -4%
O=C1CCCN1CCCNc1ncnc2c1cnn2-c1ccc(Cl)cc1
 : ?, -27%
O=C(Nc1ccc(N2CCOCC2)cc1N1CCOCC1)c1ccc([N+](=O)[O-])cc1
 : -8%, -11%
CC(=O)c1sccc1NC(=O)c1ccccc1C(=O)O
 : -14%, i
CN1C2CCC1C(C(=O)O)C(OC(=O)c1ccccc1)C2 (stereo not drawn)
 : -9%, i

(continued)
Under each structure: Vaccinia Venus, VACV mCherry inh
COc1ccc(C(=O)c2ccc(N3CCOCC3)c([N+](=O)[O-])c2)cc1
 : -8%, i
COc1ccc2oc(C(=O)OC(C)C(=O)N(C)c3ccccc3)c(C)c2c1 (stereo not drawn)
 : -15%, i
CCOC(=O)N1CCC(NC(=O)CSCc2nc(-c3ccccc3Cl)oc2C)CC1
 : ?, ?
CCOC(=O)C(Cc1ccccc1)NC(=O)Cn1nnc(-c2ccc(C)cc2)n1 (stereo not drawn)
 : 5%, -1%
COc1ccc(-c2noc(CCCC(=O)NCc3ccco3)n2)cc1OC
 : -11%, i
CCOc1ccc(C(=O)NCC(=O)NNC(=O)C2COc3ccccc3O2)cc1OCC (stereo not drawn)
 : -15%, i
